Rango dissoc inh: inhibitors of RanGTP-induced Rango-importin beta complex dissociation | Biochemical FRET Rango-importin beta, RanGTP-induced dissociation | Potency, µM (highest dose often 46.1 µM), for the others: at the highest dose activity change, negative = inhibition | 0.071% of 340,000 active; active means falling FRET ratio curve, often poorly fitted, with flat reads before Ran was added; inconclusive means other falling curves, or compound fluorescence or quenching; inactive means flat or rising ratio curve;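 also: potency is read from the fitted curve at half-maximal effect; % of control where 0% means no effect; nearly all actives have a fitted effect of over 45% in size; -100% = wells without RanGTP and RCC1; the record marks most hits as doubtful in a second field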
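Two FRET readings bracket the reaction: one 5 min after compound meets Rango–importin beta, another 45 min after RanGTP-RCC1 (0.6 uM Ran, 0.2 uM RCC1, 2 mM GTP) is added. Only the second defines inhibition.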
miR-21 reporter: raises the signal of a miR-21 reporter; HeLa miR-21 FLuc reporter, luciferase, 48 h; 340,000 tested, under 10 active; Potency, µM (highest dose often 38.3 µM), inactives show at the highest dose reporter change, positive = more light; active = well fitted rising curve with a large enough effect; inconclusive = small, poorly fitted or top-dose-only effect; inactive = no such curve, though single readings can be large or run the other way;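 also: % of control where 0% means no effect; miR-21 action dims this reporter so a rising signal means less miR-21 action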
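HeLa miR-21-FLuc reporter line, endogenous miR-21; 2000 cells/well in DMEM/10% FBS; compound titration up to ~40uM final, 48 h, 37 degree Celsius; luciferase detection reagent, 15 min lysis, CCD luminescence.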
GLA inh pH 4.5: alpha-galactosidase A (human) inhibition, pH 4.5. 230,000 tested, under 10 active. purified enzyme, 4-MU-alpha-Gal fluorescence, pH 4.5. activity change, negative = inhibition, % at 105 µM. AID 1467; inconclusive = small, poorly fitted or top-dose-only inhibition, or a rising curve; inactive = flat fitted curve, though single readings scatter; no compound was filed as active;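 also: 0% = full activity with enzyme and -100% = basal without enzyme; dose as in the result columns while the protocol names 77 µM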
Rango complex inh: inhibitors of Rango-importin beta complex formation. Q14974. Rango CFP/YFP FRET sensor + importin beta, 45 min. Potency, µM (highest dose often 92.2 µM), for the others: top-dose inhibition of complex formation. 0.031% of 340,000 active; active = rising FRET ratio curve, often small or poorly fitted; inconclusive = mostly compound fluorescence or quenching in the first reads; inactive = flat curves in all reads;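 also: potency is read from the fitted curve at half-maximal effect; 0% = DMSO wells and 100% = buffer wells lacking importin beta; nearly all actives have a fitted effect of over 15% in size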
Target sequence (Q14974 whole entry, looked up): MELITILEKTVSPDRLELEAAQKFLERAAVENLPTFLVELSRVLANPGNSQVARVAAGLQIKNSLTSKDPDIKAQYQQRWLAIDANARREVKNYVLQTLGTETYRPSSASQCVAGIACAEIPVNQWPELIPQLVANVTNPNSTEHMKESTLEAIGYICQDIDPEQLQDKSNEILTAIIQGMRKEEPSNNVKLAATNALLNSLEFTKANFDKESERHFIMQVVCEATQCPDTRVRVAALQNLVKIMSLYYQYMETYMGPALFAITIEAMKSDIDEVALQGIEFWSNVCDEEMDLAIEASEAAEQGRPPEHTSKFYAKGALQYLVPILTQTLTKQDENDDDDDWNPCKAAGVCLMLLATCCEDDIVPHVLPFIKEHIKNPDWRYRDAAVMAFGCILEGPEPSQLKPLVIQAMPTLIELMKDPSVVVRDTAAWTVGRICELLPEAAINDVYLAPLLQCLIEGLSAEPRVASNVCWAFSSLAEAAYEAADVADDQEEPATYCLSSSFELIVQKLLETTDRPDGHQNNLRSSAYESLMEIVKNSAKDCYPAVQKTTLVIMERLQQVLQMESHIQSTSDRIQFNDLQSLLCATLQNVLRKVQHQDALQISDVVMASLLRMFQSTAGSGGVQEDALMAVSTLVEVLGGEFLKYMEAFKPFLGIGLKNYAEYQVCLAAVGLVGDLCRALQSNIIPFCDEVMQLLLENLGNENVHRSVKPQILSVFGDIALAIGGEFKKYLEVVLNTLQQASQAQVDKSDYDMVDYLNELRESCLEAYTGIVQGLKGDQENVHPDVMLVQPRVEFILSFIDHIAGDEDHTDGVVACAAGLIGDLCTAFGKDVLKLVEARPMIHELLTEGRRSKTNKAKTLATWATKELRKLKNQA
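FRET biosensor (snurportin 1 IBB flanked by EYFP and cerulean), 50 nM, with compound 5 min, then 0.125 microM importin beta in PBS, 1 mM DTT, 0.02% Tween-20, 0.1% BSA. CFP/YFP ratio read after 45 min at room temperature; pre-read flags interference.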
Starred values were filed as active, the others as inactive; ? = inconclusive; nt = no result given.

Rango dissoc inh,miR-21 reporter,GLA inh pH 4.5,Rango complex inh,mol
?,nt,nt,2.3%,Cc1cccc(Oc2ccc(NS(=O)(=O)c3ccc(C)c(C(=O)O)c3)cc2)c1
-5%,-1%,2,-1.9%,CC1Cc2nc(SCC(=O)Nc3nccs3)n(Cc3ccccc3)c(=O)c2S1 (stereo not given)
1%,nt,nt,1.3%,COC1(OC)C(/C=C/c2ccc(C)cc2)C(C#N)(C#N)C1(OC)OC (stereo not given)
?,-10%,-5,?,O=C1/C(=C\c2cccs2)N=C(c2cccs2)N1Nc1ccccc1
-2%,5%,0,3.2%,O=C(CSc1nnc(NC2CCCCC2)s1)NC1CCS(=O)(=O)C1 (stereo not given)
-15%,-21%,2,-1.1%,O=C1C(Cl)=C(Nc2ccccc2O)C(=O)N1CCc1ccccc1
-19%,-2%,nt,0.1%,Cc1cc(=O)cc(C)n1-c1ccccc1N
7%,-1%,6,1.2%,CN(C)CCOC(=O)C12CC3CC(CC(C3)C1)C2
18%,-32%,?,-1.4%,Cc1nc(Nc2ccccc2)sc1-c1ccccc1
-1%,5%,-9,3.2%,COc1cc(/C=N/NC(=S)NCc2ccccc2)ccc1OCC#N
-3%,21%,nt,0.1%,CC(=O)c1ccc(NC(=O)c2ccc(C)c(S(=O)(=O)N3CCOCC3)c2)cc1
5%,0%,0,2.5%,CC(=O)NC(Cc1ccccc1)C(=O)OCC(=O)c1ccc(Cl)cc1 (stereo not given)
-9%,-5%,2,-0.4%,CCn1c(SCC(=O)Nc2nccc(C)n2)nc2ccccc21
7%,nt,nt,2.3%,CCCn1c(N)c(N(CCOC)C(=O)c2cc3c(s2)CCC(CC)C3)c(=O)[nH]c1=O (stereo not given)
-2%,4%,6,-1.3%,CC(C)C(=O)Nc1nnc(SCC(=O)NCc2ccc3c(c2)OCO3)s1
2%,17%,nt,-2.2%,CCCCC[C@H]1CN(Cc2ccccc2)C(=O)[C@@H]1CC(=O)NCc1ccccc1
5%,0%,1,-0.7%,CCCCN(C)c1c(N2CCC(C(=O)OCC)CC2)c(=O)c1=O
-17%,nt,nt,0.1%,Cc1onc(-c2c(F)cccc2Cl)c1C(=O)OCC(=O)Nc1cccc(S(=O)(=O)N(C)C)c1
-10%,-2%,nt,-0.4%,COc1cc(NC(=O)Cc2ccccc2)ccc1NC(=O)Cc1ccccc1
-1%,-35%,6,-0.2%,COc1ccc(C(=O)CSc2nnn(-c3cccc(NC(C)=O)c3)n2)cc1
-10%,nt,nt,?,CN(C)S(=O)(=O)c1cccc(NC(=O)CCc2nc3cc(S(=O)(=O)N4CCOCC4)ccc3n2C)c1
1%,-1%,5,-2.5%,O=C1COc2ccc(C(=O)COC(=O)CNC(=O)c3ccccc3)cc2N1
2%,0%,nt,-4.4%,COC(=O)COc1ccc(S(=O)(=O)NCc2ccc3c(c2)OCO3)cc1
0%,4%,10,-0.1%,COc1ccc(OC)c(S(=O)(=O)NCC(=O)O)c1
7%,-2%,-7,0.2%,Cc1cc(=O)n2c(C)n[nH]c2n1
11%,-5%,nt,-1.3%,O=C(CN1C2CCCC1CC(NC(=O)C1CCCCC1)C2)Nc1ccccc1 (stereo not given)
6%,-4%,-13,-4.8%,COc1cc(/C=N/NC(=O)c2cc(C34CC5CC(CC(C5)C3)C4)[nH]n2)ccc1O
16%,-3%,-9,0.3%,O=C(C1CCCO1)N1CCN(C(=S)Nc2cccc(Cl)c2)CC1 (stereo not given)
-8%,0%,nt,-2.9%,COc1ccc(N(CC(=O)NCc2ccco2)C(=O)CCC(=O)Nc2ccccn2)cc1
12%,nt,nt,0.7%,Cc1cccc(NS(=O)(=O)c2ccc(C)c(C(=O)NNC(=O)c3csc(N4CCOCC4)n3)c2)c1
3%,-10%,-1,0.4%,O=C(NCC1CCCO1)c1ccccn1 (stereo not given)
-9%,-23%,nt,1.0%,COc1ccc(OCc2cc(C(=O)N(Cc3nccn3C)C(C)C)no2)c2ccccc12
2%,nt,nt,-1.0%,COc1ccccc1N(C)S(=O)(=O)c1ccc(C(=O)Nc2nc(C)c(C(C)=O)s2)cc1
2%,nt,nt,-0.7%,CC(=O)C1(O)CCC2C3CCC4CC(O)CCC4(C)C3C(=O)CC21C (stereo not given)
-1%,-32%,nt,4.3%,Cc1cc(NC(=O)C(C)Oc2ccc(Cl)cc2Cl)no1 (stereo not given)
2%,-6%,-18,2.0%,Cc1ccccc1Nc1nnc(SCC(=O)NCc2cccs2)s1
2%,3%,-10,0.2%,O=C(COC(=O)C12CC3CC(CC(Br)(C3)C1)C2)Nc1cccnc1Cl
1%,-5%,-12,0.7%,COC(=O)CSC1=C(C#N)C(c2ccc(C(C)C)cc2)CC(=O)N1 (stereo not given)
10%,4%,-10,3.4%,COc1ccc(C(=O)NCC(=O)OCC(=O)Nc2cc([N+](=O)[O-])ccc2F)cc1
1%,-1%,0,2.1%,O=C(c1ccc(S(=O)(=O)N2CCOCC2)cc1)N1CCN(C2=NS(=O)(=O)c3ccccc32)CC1
3%,0%,4,-0.1%,O=C(Cc1ccccc1)NCC(=O)N/N=C/c1ccc(Cl)cc1
5%,-9%,-22,-1.3%,O=C(COC(=O)C1CC(=O)N(c2ccc3c(c2)OCCO3)C1)Nc1ccc2c(c1)CCC2 (stereo not given)
15%,0%,-7,0.1%,O=C(CCc1nnc(CCCCc2ccccc2)o1)N1CCCCC1CCO (stereo not given)
2%,-49%,nt,3.4%,Cc1cc(C)nc(Nc2nc(-c3ccccc3)cs2)n1
-3%,-3%,2,0.2%,CCCCNC(=O)N1CCN(Cc2ccc(F)cc2)CC1
7%,-6%,1,0.2%,CN(C(=O)Cc1ccccc1)n1cnnc1
1%,-2%,1,-5.5%,CCOCCCNCC(=O)Nc1ccccc1N1CCOCC1
0%,-15%,-5,0.2%,COc1cc2cc(CN(CCc3cccc(C)c3)C(=S)NCCCN(C)C)c(=O)[nH]c2cc1OC

Among those listed so far, 2 have a COOH group.
Rango dissoc inh,miR-21 reporter,GLA inh pH 4.5,Rango complex inh,mol
?,nt,nt,2.3%,Cc1cccc(Oc2ccc(NS(=O)(=O)c3ccc(C)c(C(=O)O)c3)cc2)c1
0%,4%,10,-0.1%,COc1ccc(OC)c(S(=O)(=O)NCC(=O)O)c1

Next part:
Rango dissoc inh,miR-21 reporter,GLA inh pH 4.5,Rango complex inh,mol
12%,4%,2,3.7%,CN1CCN(c2ccccc2NC(=O)c2ccc(F)cc2)CC1
-15%,-6%,5,-2.5%,CC(C)(C)c1ccccc1NC(=O)c1ccco1
0%,-4%,2,-3.0%,O=C(OCCNC(=O)c1ccc2ccccc2n1)c1cccnc1
1%,5%,nt,0.7%,COc1ccc(NC(=O)CN(c2ccc(C)cc2)S(=O)(=O)c2c(C)nn(C)c2C)cc1
5%,-9%,-2,0.5%,Cc1ccccc1N(CC(=O)N/N=C/c1ccc(Cl)cc1)C(=O)c1ccccc1
10%,-2%,25,-2.0%,Cc1cccc(C)c1NC(=O)COC(=O)c1ccccc1Nc1ccccc1
-4%,-4%,6,1.5%,CCCCCOC(=O)Cn1c(SCC(=O)Nc2ccccc2)nc2c1c(=O)[nH]c(=O)n2C
-29%,-3%,-9,?,Cn1c(=O)c(Nc2ccc(Cl)cc2)c2c3c(cccc31)C(=O)c1ccccc1-2
-6%,0%,nt,0.6%,COCCCC1CCN(C(=O)C2CCC(=O)N(CC3CCCCC3)C2)CC1 (stereo not given)
-21%,nt,nt,?,CCN(CC(=O)Nc1ccc2c(c1)OCCO2)Cc1nc2cc(Cl)ccc2c(=O)[nH]1
13%,-6%,-8,-0.7%,CCOC(=O)C(/C(C)=N/NC(=O)c1ccccc1[N+](=O)[O-])C(C)C (stereo not given)
37%,-15%,nt,2.3%,COc1ccc(NC(=O)c2ccc3ncsc3c2)c2ccccc12
-4%,-8%,5,-1.5%,CCCn1c(-c2cccc([N+](=O)[O-])c2)nc2c1c(=O)[nH]c(=O)n2Cc1ccccc1
-1%,-18%,nt,3.1%,COc1ccc(C(=O)CC(=O)C(=O)Nc2ccc(C)c(Cl)c2)cc1
18%,-22%,nt,3.9%,CN1CCN(CC(=O)Nc2c(C(=O)c3ccccc3)oc3ccccc23)CC1
22%,1%,-1,6.3%,CCCn1c(=O)n(C)c(=O)c2c(SCC(=O)NCc3ccco3)nc(C3CC3)nc21
-17%,0%,17,0.8%,COc1cc(N/C=C2\CC(=O)NC(C)=C2C#N)cc(OC)c1OC
0%,nt,nt,0.3%,COc1cccc(CNC(=O)C(=O)NCCC2CCCCN2S(=O)(=O)c2ccc(C)cc2)c1 (stereo not given)
1%,2%,-13,0.3%,CCCCc1c(O)nc2ccccn2c1=O
1%,2%,nt,3.6%,COc1cccc(NC(=S)N2CCC(NC(=O)C3CCCCC3)CC2)c1
-9%,-1%,-6,-1.1%,COc1ccc(C)cc1NC(=O)CSc1nnc(CC(=O)Nc2ccccc2F)n1C
-5%,-13%,-2,-0.3%,CCOc1ccc(OCCCCOc2ccccc2C(C)=O)cc1
14%,-3%,1,-5.7%,COc1cc2c(cc1OC)C1(CCCC1)CNC2C (stereo not given)
0%,-22%,2,0.0%,O=C(Nc1nc(=O)c2ccccc2s1)c1ccc(Cl)cc1
-9%,-50%,4,0.6%,Cc1nnc(NC(=O)c2ccc3ccccc3n2)s1
17%,-6%,4,-0.3%,CCOc1ccc2c(=O)c(-c3ccc4c(c3)OCCCO4)c(C)oc2c1
-4%,-37%,-2,0.3%,Cc1csc(NC(=O)c2ccc(S(C)(=O)=O)cc2)n1
-3%,-7%,6,?,CCOc1ccccc1N(CC(=O)N1CCOCC1)S(=O)(=O)c1ccccc1
-11%,9%,nt,0.8%,CC(C)C(=O)Nc1ccc(C(=O)Nc2ccc(S(=O)(=O)N3CCOCC3)cc2)cc1
5%,-1%,-1,?,COc1cccc(CC(NC(C)=O)C(=O)NC2CCN(c3nnnn3-c3ccccc3)CC2)c1OC (stereo not given)
6%,-3%,-8,4.2%,CCOC(=O)CSc1nnc(CNC(=O)c2ccco2)n1-c1ccc(F)cc1
4%,18%,-3,-0.8%,O=C(Nc1cc(SCCO)cc([N+](=O)[O-])c1)c1ccc(Br)o1
8%,11%,nt,-0.6%,COC(=O)c1cccc2c1-c1ccccc1/C2=N\NC(N)=O
13%,nt,nt,7.5%,Cc1cccc(-n2c(SCC(=O)N(C)C3CCS(=O)(=O)C3)nc3ccccc3c2=O)c1C (stereo not given)
-2%,-6%,nt,-0.6%,CCOc1ccc(S(=O)(=O)n2ccc(C)n2)cc1
3%,4%,nt,-1.1%,CC(C)c1ccc(NS(=O)(=O)c2ccc3c(c2)oc(=O)n3C)cc1
-5%,nt,nt,-3.2%,CC(=O)c1c(C)[nH]c(C(=O)CN(C)CC(=O)Nc2ccccc2Cl)c1C
-4%,-5%,1,-4.1%,CCOC(=O)CNc1nc(C(C)(C)C)nc2c1nnn2Cc1ccccc1Cl
4%,nt,nt,-0.1%,CCc1ccc([C@H]2C(C(=O)O)=C[C@@H](C(C)(C)C)N2S(=O)(=O)c2ccc(C)cc2)cc1
-8%,2%,-3,4.0%,Cc1ccc(S(=O)(=O)NCC(=O)N2CCN(c3ccccc3F)CC2)cc1
?,-17%,-1,4.1%,O=C(NCc1ccc(F)cc1)C(c1cccs1)N(C(=O)c1csnn1)C1CC1 (stereo not given)

Part of the list above in order of number of heavy atoms, high to low.
Rango dissoc inh,miR-21 reporter,GLA inh pH 4.5,Rango complex inh,mol
-8%,2%,-3,4.0%,Cc1ccc(S(=O)(=O)NCC(=O)N2CCN(c3ccccc3F)CC2)cc1
-5%,nt,nt,-3.2%,CC(=O)c1c(C)[nH]c(C(=O)CN(C)CC(=O)Nc2ccccc2Cl)c1C
3%,4%,nt,-1.1%,CC(C)c1ccc(NS(=O)(=O)c2ccc3c(c2)oc(=O)n3C)cc1
-2%,-6%,nt,-0.6%,CCOc1ccc(S(=O)(=O)n2ccc(C)n2)cc1

Source: PubChem BioAssay

These rows are one share of the data. The share of hits here may be higher or lower than overall.
